Screens deposited in PubChem by National Center for Advancing Translational Sciences (NCATS).
D2 potentiator – human D2 receptor positive allosteric modulation; P14416; DiscoveRx D2 beta-arrestin cells, luminescence, 90 min; 100% = 57 uM dopamine signal; potentiation, % (test concentration not listed); hit rate 0.23% among 360,000; active = potentiation of 50% or more; inconclusive = 30% to 50%; inactive = 30% or less;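 further: compound concentration not given in the record; tested on top of an EC20 dose of dopamine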
Target sequence (P14416 whole entry, looked up): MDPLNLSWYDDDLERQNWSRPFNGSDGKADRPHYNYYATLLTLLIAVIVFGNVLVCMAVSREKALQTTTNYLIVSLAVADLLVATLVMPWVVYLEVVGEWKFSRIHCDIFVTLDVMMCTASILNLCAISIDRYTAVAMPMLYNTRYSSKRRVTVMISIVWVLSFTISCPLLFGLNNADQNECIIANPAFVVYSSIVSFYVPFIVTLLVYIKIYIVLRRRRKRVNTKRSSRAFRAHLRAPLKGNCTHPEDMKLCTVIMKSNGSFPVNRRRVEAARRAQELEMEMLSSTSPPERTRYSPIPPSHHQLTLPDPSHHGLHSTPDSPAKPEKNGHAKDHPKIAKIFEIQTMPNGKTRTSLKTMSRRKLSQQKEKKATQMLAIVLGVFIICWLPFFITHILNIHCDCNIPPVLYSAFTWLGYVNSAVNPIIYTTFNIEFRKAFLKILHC
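PathHunter D2 cells, attached overnight at 37 deg C, received compound in DMSO plus dopamine at EC20 (50 nM final) for 90 min at 37 deg C. Beta-arrestin recruitment was read as luminescence after 1 h with detection reagent at ambient temperature.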
CtBP-E1A inh – blocks the CtBP interaction with E1A. activity change, % (concentration not given with the values). AlphaScreen GST-E1A/His-CtBP binding, 1536-well; active compounds read low; control for the full effect not named in the record. AID 651724. hit rate 0.49% among 340,000; in the data active means activity change below about -65%; inconclusive means about -30% to -65%; inactive means above about -30%; further: on the % scale 0 is the no-effect control and ±100 the full control effect
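In 5 uL wells, 23 nL compound meets equimolar GST-E1A and His-CtBP (5X stock 125 nM each) for 2 h, 37 °C. Beads (5X, 50 ug/mL) then 1 h, 37 °C, dark.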
Six1-Eya2 blk – blocks human Six1 binding to Eya2; Q15475+O00167; AlphaScreen GST-Six1/His-Eya2 binding, biochemical; active compounds read low; control for the full effect not named in the record; activity change, % (concentration not given with the values); hit rate 0.56% among 360,000; in the data active = activity change below about -65%; inconclusive = about -30% to -65%; inactive = above about -30%; further: on the % scale 0 is the no-effect control and ±100 the full control effect
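Homogeneous AlphaScreen proximity assay pairing GST-Six1 with His-tagged Eya2 (added as 5X mix: 250 nM and 500 nM) in 50 mM Tris pH 8.0, 300 mM NaCl, 1 mM TCEP. Glutathione donor and nickel acceptor beads; 1 h, 37 °C, dark.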
gsp ag – gsp mutant agonism; Potency, µM (highest dose often 76.9 µM), for inactives: at the highest dose activation (cAMP increase), usual class: activators; AID 624287; gsp mutant cells, cAMP HTRF, 30 min; control for the full effect not named in the record; hit rate 0.13% among 340,000; active = well fitted activation curve with a large enough effect; inconclusive = small, poorly fitted or top-dose-only effect, or another doubt; inactive = no such curve, though single readings can be large or run the other way; cell line not stated here;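 further: phosphodiesterase inhibitor Ro 20-1724 added with compounds to block cAMP breakdown; potency means the concentration at half of the fitted maximal effect; nearly all actives have a fitted effect of over 60% in size; about a fifth of the inactives were tested at one dose only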
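Cells in DMEM/10% FBS with G418 were pretreated with compounds in DMSO plus […] (300 uM stock) for 30 min at 37C. cAMP was measured by HTRF (cAMP-d2 plus anti-cAMP antibody-K) after 30 min at room temperature.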
gsp antag – gsp mutant antagonism | gsp-mutant cells, cAMP HTRF, 30 min; control for the full effect not named in the record | Potency, µM (titrated, usually from 76.9 µM), for the others: at the highest dose activity change, negative = inhibition, hits mostly inhibitors | hit rate 0.4% among 340,000 | AID 624288; active = falling curve of any shape with a large fitted effect; inconclusive = falling curve, mostly with a smaller effect; inactive = flat or rising curve; cell line not stated here;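 further: intracellular cAMP measured with PDE inhibitor Ro 20-1724 present during compound exposure; potency means the concentration at half of the fitted maximal effect; on the % scale 0 is the no-effect control and ±100 the full control effect; nearly all actives have a fitted effect of over 65% in size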
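Cells, 2000/well, grown 16–24 h in DMEM 10% FBS with 0.5 mg/ml G418, then compounds plus […] (300 uM addition stock), 30 min at 37C. cAMP read by HTRF (cAMP-d2 and anti-cAMP antibody-K in lysis buffer) after 30 min RT.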
D2 agonist – activates the human D2 dopamine receptor; AID 624465; P14416; hit rate 0.084% among 360,000; DiscoveRx PathHunter D2 beta-arrestin, luminescence, 90 min; 100% = 57 uM dopamine signal; activation, % (test concentration not listed); in the data active = activation above about 40%; inconclusive = about 15% to 40%; inactive = below about 15%; further: compound concentration not given in the record; the text of the record calls up to 30% inactive
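Agonist mode: compounds alone added to overnight-plated D2 PathHunter cells for 90 min at 37 C, with 57 uM final dopamine (EC100) defining full response. Beta-arrestin recruitment detected by chemiluminescent reagent, read after 1 h at ambient temperature.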
Numbers without * were called inactive; ? = inconclusive; . = not tested or not shown; [ ] = another dose, or the depositor's remark. This is a random part of the collection, and some 1.4% of all compounds hit somewhere here.

Preview (4 entries):
SMILES	D2 potentiator	CtBP-E1A inh	Six1-Eya2 blk	gsp ag	gsp antag	D2 agonist
Cc1nnc(SCc2nc3scc(-c4ccccc4)c3c(=O)[nH]2)s1	-9	-6	4	33%	-19%	-1.1
O=C(CCNC(=O)c1ccc(Br)cc1)NCc1ccccn1	-12	3	5	10%[15.4 µM]	14%	-7.0
CC(=O)NC1CC2CCCC(C1)N2CC(=O)NCc1ccc(F)cc1 (centres undefined)	3	-1	6	9%	17%	-1.4
NC(=O)NC(Cc1ccccc1)C(=O)NCCCSc1ccccc1 (centres undefined)	-2	-6	-5	-3%	3%	0.0

The listing (from the top)
SMILES	D2 potentiator	CtBP-E1A inh	Six1-Eya2 blk	gsp ag	gsp antag	D2 agonist
Cc1nnc(SCc2nc3scc(-c4ccccc4)c3c(=O)[nH]2)s1	-9	-6	4	33%	-19%	-1.1
O=C(CCNC(=O)c1ccc(Br)cc1)NCc1ccccn1	-12	3	5	10%[15.4 µM]	14%	-7.0
CC(=O)NC1CC2CCCC(C1)N2CC(=O)NCc1ccc(F)cc1 (centres undefined)	3	-1	6	9%	17%	-1.4
NC(=O)NC(Cc1ccccc1)C(=O)NCCCSc1ccccc1 (centres undefined)	-2	-6	-5	-3%	3%	0.0
CCCCNC(=O)CN(C1CCCCC1)S(C)(=O)=O	-2	-5	-4	0%	11%	-4.3
CCn1c(C)nnc1SCC(=O)Nc1ccc(N2CCOCC2)cc1	-8	15	-12	-30%[inhibitor]	6%	1.2
CC(C)N1CCC(N2CCN(Cc3cc4c(cc3Cl)OCO4)CC2CCO)CC1 (centres undefined)	-7	1	1	-10%[15.4 µM]	4%	0.6
S=P(c1ccc(N2CCOCC2)cc1N1CCOCC1)(N1CCOCC1)N1CCOCC1	-31	0	20	-45%[inhibitor]	14%	-1.5
CN(C)/C=C(\C#N)c1nc2ccccc2[nH]1	-23	0	-2	-5%	-5%	-1.1
CC(=O)c1cnc2c(-c3cccc(Br)c3)cnn2c1C	5	16	5	-42%[inhibitor]	-1%	3.8
C#CCOCCOCCOCCNc1nc(N2CCN(C(=O)[C@H]([C@@H](C)CC)n3cc([C@@H](N)CC(C)C)nn3)CC2)nc(N2CCN(C(=O)[C@H](CCCCN)n3cc([C@@H](N)C(C)CC)nn3)CC2)n1 (some centres undefined)	-14	-7	-8	14%	5%	-1.0
O=C(Nc1cccc(-c2ccc(N3CCOCC3)nn2)c1)c1ccc([N+](=O)[O-])cc1	24	-4	-18	-2%	-11%	5.5
CS(=O)(=O)N(CC(=O)N1CCCC1)c1ccc(F)cc1	2	-3	-1	-56%[inhibitor]	.	-1.7
CC1CN(S(=O)(=O)c2ccccc2)C(C)CN1S(=O)(=O)c1ccccc1 (centres undefined)	-3	0	6	-9%[15.4 µM]	9%	1.6
Cc1cc2c(cc1C)NC1(C(=O)Nc3ccccc31)C1=C(CC(C)(C)CC1=O)N2 (centres undefined)	-11	10	7	16%	3%	0.7
CCc1noc(C)c1C(=O)N1CCC(CCC(=O)Nc2cccc(OC)c2)CC1	-6	3	2	-8%	-6%	0.3
Cc1cc(C)nc(N2CCC(C(=O)NCc3ccccc3F)CC2)n1	-6	5	0	27%	9%	2.8
Cc1cccc(C(=O)N/N=C2/SCC(=O)N2Cc2ccccc2)c1	-9	-5	7	3%[15.4 µM]	-20%	-8.2
Cc1[nH]c(=S)[nH]c(=O)c1Cc1ccc(OCC(C)C)cc1	-3	3	-1	2%	12%	-1.8
COC(=O)c1ccc(N/C(C)=C/C(=O)c2ccc(C)o2)cc1	2	4	8	-37%[inhibitor]	7%	-1.0
NC(=Nc1ccc(N)cc1)C(N)=Nc1ccc(N)cc1	0	?	-65*	21%	1%	2.8
O=C(Nc1ccccc1Oc1ccccc1)c1ccccc1F	-6	9	35	5%[15.4 µM]	2%	2.1
COc1ccc(-c2nnc(SCC(=O)NNC(=O)Cc3ccccc3)n2C)cc1OC	-6	1	-14	6%	9%	-1.0
COc1ccccc1CCC(=O)Nc1cccc(S(=O)(=O)N2CCOCC2)c1	-4	2	-4	-3%[15.4 µM]	1%	-0.5

Three entries out of the list above, ordered by their value in D2 potentiator, lowest first:
smiles	D2 potentiator
CCc1noc(C)c1C(=O)N1CCC(CCC(=O)Nc2cccc(OC)c2)CC1	-6
COc1ccccc1CCC(=O)Nc1cccc(S(=O)(=O)N2CCOCC2)c1	-4
NC(=Nc1ccc(N)cc1)C(N)=Nc1ccc(N)cc1	0

Another view of four compounds above:
mol,D2 potentiator,CtBP-E1A inh,Six1-Eya2 blk,gsp ag,gsp antag,D2 agonist
Cc1cc(C)nc(N2CCC(C(=O)NCc3ccccc3F)CC2)n1,-6,5,0,27%,9%,2.8
COc1ccccc1CCC(=O)Nc1cccc(S(=O)(=O)N2CCOCC2)c1,-4,2,-4,-3%[15.4 µM],1%,-0.5
CC1CN(S(=O)(=O)c2ccccc2)C(C)CN1S(=O)(=O)c1ccccc1 (centres undefined),-3,0,6,-9%[15.4 µM],9%,1.6
COC(=O)c1ccc(N/C(C)=C/C(=O)c2ccc(C)o2)cc1,2,4,8,-37%[inhibitor],7%,-1.0

(listing goes on)
SMILES	D2 potentiator	CtBP-E1A inh	Six1-Eya2 blk	gsp ag	gsp antag	D2 agonist
COc1ccc(C(=O)OCC(=O)NC(=O)Nc2ccccc2F)c(OC)c1	-1	.	10	-1%	1%	1.6
Nc1ccc(Nc2ccncc2[N+](=O)[O-])cc1	-11	0	-3	6%	6%	-2.1
O=C(NCc1ccc2c(c1)OCO2)C1CCN(S(=O)(=O)c2cccs2)CC1	-7	6	3	-2%	-16%	-3.3
CC(C)C(=O)Nc1ccc(C(=O)NNC(=S)NC(=O)c2ccccc2[N+](=O)[O-])cc1	-8	3	-5	-23%	0%	-5.5
OC(CNCc1cccs1)c1ccccc1 (centres undefined)	-2	4	0	-2%[15.4 µM]	-7%	2.0
COc1cn(-c2ccccc2)nc1C(=O)NCc1ccccc1	-8	-11	-12	7%[15.4 µM]	-13%	-3.6
Cc1nc2nc(-c3ccco3)nn2c(C)c1Cl	-11	-6	-13	?	2%	-1.4
O=C(CN1C(=O)c2cccnc2Oc2ccc(Cl)cc21)Nc1ccc(F)cc1	14	2	-3	5%	-31%	2.4
CCC1CCCN1Cn1cnc2c([nH]c3ccc(Cl)cc32)c1=O (centres undefined)	-3	6	8	12%[15.4 µM]	-1%	1.3
CC(=O)c1cccc(OC(=O)c2ccc3c(=O)n4c(nc3c2)CCC4)c1	-23	-3	-8	-2%	-14%	-4.3
CCn1c2ccccc2c2nn(C)c(=N)nc21	-3	-2	-9	?	-7%	-1.7
CCCC(=O)Nc1ccccc1-c1nnn(CC(=O)Nc2ccc(OC)cc2)n1	11	14	4	-30%	-6%	-2.8
CC(NC(=O)Cc1ccsc1)c1ccc(S(N)(=O)=O)cc1 (centres undefined)	-10	3	2	14%	1%	-3.6
CCOC(=O)c1ccccc1NS(=O)(=O)c1ccc(OCC)cc1	-14	34	28	-35%[inhibitor]	10%	-3.2
Cc1ccc(OCCN2C(=O)c3ccccc3C2=O)c(C)c1	4	25	21	4%	-13%	-2.2
CCCCOc1ccc(CSc2n[nH]c(C)n2)cc1	-9	-7	0	21%	-27%	1.6
O=C(O)c1cccc(Nc2ccnc(Nc3cccc(C(=O)O)c3)n2)c1	-16	-6	1	27%	8%	-1.5
COC(=O)c1sccc1NC(=O)C1CC=CCC1C(=O)O (centres undefined)	-4	6	6	?	18%	2.7
COc1ccc(CCNC(=O)C2CC(=O)N(C3CCCCC3)C2)cc1OC (centres undefined)	0	7	3	8%	12%	0.3
CCOC(=O)C(NCc1ccccc1)(NC(=O)c1ccccc1)C(F)(F)F (centres undefined)	-1	9	7	-20%	6%	-2.9
CCOc1ccc(C(=O)Nc2ccc(N3CCN(S(C)(=O)=O)CC3)cc2)cc1[N+](=O)[O-]	-1	.	21	-47%[inhibitor]	12%	-1.2
CC1=CC(=O)C=CC1=Nc1ccc(N(C)C)cc1	-12	-29	?	.	.	10
COc1ccc(/C=C/C(=O)OCC(=O)NCC2CCCO2)cc1 (centres undefined)	-4	-23	4	-108%[inhibitor]	0%	-2.8
C#CCNC(=O)c1cc2sccc2n1C	-3	.	-20	?	11%	-7.7
S=C(Nc1ccccc1)N1CCN(Cc2ccccc2)CC1	-12	4	-10	-21%[15.4 µM]	0%	-2.1
COC(=O)Cc1c(O)ccn(CCc2c[nH]c3ccc(OC)cc23)c1=O	-8	-6	-2	14%	-3%	-5.4
CN1C(=O)C(O)(c2sc(N)nc2-c2ccccc2)c2ccccc21 (centres undefined)	1	4	2	-40%[inhibitor]	14%	-0.5
COc1ccccc1S(=O)(=O)c1c(C)cc(C)[nH]c1=O	-9	4	-4	?	6%	3.7
CN(C(=O)c1cc([N+](=O)[O-])ccc1N1CCCC1)C1CCCCC1	-8	-8	-5	-28%	-1%	-2.8
CC(C)(C)c1ccc(NC(=O)Cn2cnc3cc([N+](=O)[O-])ccc3c2=O)cc1	27	-5	-14	-37%	1%	?
O=C(Cc1n[nH]c(=O)c2ccccc12)OCC(=O)c1ccccc1Cl	-8	2	-7	-3%[15.4 µM]	2%	-6.1
O=C(CNC(=O)c1ccco1)OCC(=O)c1ccc(Cl)cc1	-9	.	6	-2%	0%	-6.0
CCN1CCN(C(=O)CCc2nc3ccccc3c(=O)[nH]2)CC1	-10	-2	-1	1%	8%	-2.6
Cn1c(=O)oc2cc(S(=O)(=O)Nc3ccc(O)cc3)ccc21	-1	11	0	-21%	4%	1.3
C[C@H]([C@@H](N)C(=O)N[C@@H](C(=O)O)[C@@H]1O[C@H](n2ccc(=O)[nH]c2=O)[C@@H](O)[C@H]1O)[C@@H](O)c1ccc(O)cn1	6	0	-6	.	1%	-2.5
S=C(Nc1ccccc1)Nc1ccccc1Br	-3	1	7	26%[15.4 µM]	2%	-1.0
CN(C)c1cc[n+](CC(=O)N2CCCc3ccccc32)cc1	-8	7	9	3%[15.4 µM]	15%	3.6
CCc1cccc(NC(=O)c2ccc(Cn3nc(C)cc3C)o2)c1	-23	-4	8	-47%[inhibitor]	-4%	-6.9
O=C(COC(=O)CCc1nc2ccccc2c(=O)[nH]1)Nc1ccc(OC(F)(F)F)cc1	-2	4	3	-5%	5%	-4.6
CC1CCN(Cc2nnnn2CCCC(=O)NCC(C)(C)N2CCOCC2)CC1	-11	2	0	-1%	2%	-1.0
Cc1cnc(C(=O)NCc2ccc(F)cc2)cn1	-2	6	4	3%[15.4 µM]	5%	-0.6
O=C(O)CC1S/C(=N\N=C2\C(=O)Nc3ccccc32)N(c2ccc(O)cc2)C1=O (centres undefined)	-17	-30	-21	24%	11%	-6.4
